N370S GC: inhibitors or activators of N370S glucocerebrosidase for Gaucher disease. actives 0.092% (n = 330,000). AID 2101. P04062. Potency, µM (titrated, usually from 59.4 µM), without a hit: at the top dose activity change, negative = inhibition, actives largely listed as inhibitors. N370S GC spleen homogenate, 4MU-glucoside fluorescence;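 further: 0% = full enzyme activity and -100% = no enzyme basal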
FEN1 inh: human FEN1 inhibition. P39748. Recombinant FEN1 flap cleavage, fluorescence, 15 min. Potency, µM (titrated, usually from 114 µM), inactives show at the highest dose activity change, negative = inhibition, hits mostly inhibitors. actives 0.35% (n = 390,000). AID 588795; further: nearly all actives have a fitted effect of over 65% in size
Target sequence (P39748 whole entry, looked up): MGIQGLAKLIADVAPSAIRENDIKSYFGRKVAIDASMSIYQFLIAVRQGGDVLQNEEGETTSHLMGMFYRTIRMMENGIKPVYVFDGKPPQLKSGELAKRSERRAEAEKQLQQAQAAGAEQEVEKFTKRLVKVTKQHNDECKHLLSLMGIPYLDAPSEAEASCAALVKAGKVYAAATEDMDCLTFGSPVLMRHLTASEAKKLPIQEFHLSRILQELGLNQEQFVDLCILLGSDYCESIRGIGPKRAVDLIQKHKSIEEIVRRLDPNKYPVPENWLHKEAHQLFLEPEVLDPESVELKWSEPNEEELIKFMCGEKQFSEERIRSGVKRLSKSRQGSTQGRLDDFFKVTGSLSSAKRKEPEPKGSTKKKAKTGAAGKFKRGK
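FEN1 at 10 nM preincubated with compounds 15 min at room temperature, then flap DNA substrate added at 50 nM final. Signal read at 0 and 15 min; concentration-response fitted with four-parameter Hill equation.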
Active calls of the source: *; ? = inconclusive; · = not tested or not shown; & = joins results of further samples; [ ] = remark or other dose. The call rests on the fitted dose curve; in most records, active means well fitted curve in the direction sought with a large enough effect; inconclusive means small, poorly fitted or top-dose-only effect, or another doubt; inactive means no such curve, though single readings can be large; an effect the other way counts as inactive or inconclusive. Unless noted, on the % scale 0 is the no-effect control and ±100 the full control effect; potency means the concentration at half of the fitted maximal effect. Not all compounds are listed, and most or all hits are left out here.

mol,N370S GC,FEN1 inh
CC1(C)N=C(c2ccccn2)C(C)(C)N1O,8%,9%
CCc1ccc(OCCNC(=O)c2cccs2)cc1,10%,-14%
CCCC12CN3CC(C)(CN(C1)C3c1ccco1)C2=O (centres undefined),-10%,-8%
Cc1ccc2[nH]ccc(=O)c2c1,3%,-2%
CC(C)N(C(=O)CSc1nc2ccccc2n1-c1ccccc1)C(C)C,15%,-3%
O=C1NC2NC(=O)N(C(Cc3ccccc3)C(=O)O)C2N1 (centres undefined),-5%,10%
COc1ccc(NC(=O)CC2Nc3cccc4cccc(c34)NC2=O)cc1 (centres undefined),-2%,?
Cc1ccc(CN2C(=O)c3ccccc3Sc3ccc(C(=O)NCCCN4CCOCC4)cc32)cc1,?,-1%&4%
CN1CCN(C(CNC(=O)C(=O)Nc2ccc(Cl)cc2)c2cccnc2)CC1 (centres undefined),·,-20%
CCn1c(NC(=O)c2ccccc2F)c(-c2cccs2)c(=O)c2ccccc21,15%,-14%
COC(=O)c1ccc(C(=O)N2CCCC(CNC(=O)c3ccc(F)cc3)C2)cc1 (centres undefined),1%,19%
CC1=NC(C(F)(F)F)(C(F)(F)F)C2=C(CC(C)(C)CC2=O)N1Cc1ccco1,?,-1%
CC(=O)c1ccc(NC(=O)Cc2ccsc2)cc1,-4%,-14%
O=C(NCc1cccnc1)Nc1cccc(C(F)(F)F)c1,-4%,14%
CCCCN1C(C(=O)c2ccccc2)=C(OC(=O)CC)c2ccccc2S1(=O)=O,·,-9%
CC(=O)Nc1ccc(C(=O)OCC(=O)N2CC3(C)CC2CC(C)(C)C3)cc1 (centres undefined),·,18%
O=C(CNS(=O)(=O)c1ccc(Br)cc1Cl)OCC(=O)N1CCCC1=O,·,25%
O=C(CNCc1cccs1)Nc1ccc(N2CCCCCC2)cc1,-7%,-21%
Cc1cc(C)cc(-n2c(SCC(=O)NCc3ccco3)nc3ccccc3c2=O)c1,1%,-8%
COc1ccc(-c2nnc(SCC(=O)Nc3c(Cl)cc(Cl)cc3C(=O)O)o2)cc1,·,-9%
Cc1ccc(C(C)C)c(OCc2nn(CC(=O)c3ccc(Cl)cc3)c3[n+]2CCCCC3)c1,-27%,-5%
[O-]/[N+](=C/c1ccc(F)cc1)c1ccccc1,-4%,16%
COc1ccc(NC(=S)NC(C)c2ccncc2)cc1OC (centres undefined),-4%,15%
O=c1c2ccccc2nnn1CSc1nnc(-c2ccc3c(c2)OCO3)o1,3%,-7%
Cn1c(=O)[nH]c(=O)c2c1nc(N1CCN(CCO)CC1)n2CCSc1nc2ccccc2s1,0%,14%
COc1ccc(C=NCC2COc3ccccc3O2)cc1OC (centres undefined),-2%,-1%
COC(=O)[C@@H]1C[C@@]2(O)[C@H](O)[C@H](O)[C@H](O)C[C@H]2N1Cc1ccc(C(F)(F)F)cc1,10%&-6%,18%
CC1(C)CC(=O)/C(=N/Nc2ccc(Cl)cc2)CO1,-7%,-3%
O=C(NCc1ccccc1Cl)c1ccccc1Oc1ccccc1,?,-6%
CCOc1ccccc1N1CCN(C(=O)c2cc(S(=O)(=O)N3CCCCC3)ccc2C)CC1,·,8%
CC1CN(Cc2nc3c(c(=O)n(C)c(=O)n3C)n2CC(O)CO)CC(C)O1 (centres undefined),-5%,8%
Cc1ccc(CNC(=S)Nc2ccc(OC(F)F)cc2C)cc1,8%,-1%
COc1cc(NC(=S)Nc2ncccc2C)cc(OC)c1OC,-1%,-9%
COc1ccc(CNC(=O)CCCn2c(=S)[nH]c3cc4c(cc3c2=O)OCO4)cc1,-11%,-2%
Cc1sc(NC(=O)CN(C)C2CCCCC2)nc1-c1ccc2c(c1)CCN2S(=O)(=O)c1ccccc1,-17%,·
CN(CC(=O)Nc1ccc(F)cc1)C(=O)C1CCN(S(=O)(=O)c2ccc3c(c2)OCCO3)CC1,-6%,-5%
COc1ccccc1N1CCN(C(=O)CSc2nnc(NC(=O)C3CCC3)s2)CC1,-7%,-7%
CCOC(=O)C1=C(CC)Nc2ccccc2N=C1NC(=O)c1cc(S(=O)(=O)N(C)C)ccc1Cl,13%,7%
CS(=O)(=O)c1cnc(-c2cccnc2)nc1N,0%,-4%
Cc1cccc(C)c1NC(=O)C1CCCNC1 (centres undefined),-7%,-3%
COc1ccc(S(=O)(=O)N2CCCCCC2)cc1N,-13%,-3%
Cc1ccc(C)c(NC(=O)c2ccccc2C(=O)c2ccccc2)c1,12%,·
COc1ccc(-c2nc(N)n(C(C)=O)n2)cc1,-18%,-10%
COc1ccc2oc(=O)c(C(=O)OCC(=O)c3ccc([N+](=O)[O-])cc3)cc2c1,-23%,·
COCCn1c(SCC(=O)Nc2ccccc2OC)nc2ccccc2c1=O,?,-12%
Cc1cccc(N(CC(=O)NC2CCCCC2)C(=O)c2ccc(C)s2)c1,5%,-19%
CCc1cc(SC#N)cc(C)c1N,9%,-7%
Cc1ccc(OCC(=O)NC2CCCC2)c(C)c1,9%,0%
CC(C)c1ccc(/C=C2\Oc3c(ccc(O)c3CN3CCN(C)CC3)C2=O)cc1,-10%,11%
Cc1ccc(NC(=O)C2CCN(c3nc4ccccc4nc3C(F)(F)F)CC2)cc1F,·,-1%

(listing goes on)
mol,N370S GC,FEN1 inh
Cc1cccc2cc(CN(Cc3nnnn3Cc3ccco3)C3CCCC3)c3nnnn3c12,10%,-11%
O=c1c2ccccc2[nH]c(=S)n1Cc1cccnc1,4%[2.35 µM],15%
Cc1cccc(-c2nc3c(c(SCC(=O)N4CCOCC4)n2)CCCC3)c1,7%,1%
Cc1cccc(OCc2n[nH]c(=S)o2)c1,-3%,-18%
CCOC(=O)C(C)n1cnc2sc(C)c(C)c2c1=O (centres undefined),2%,-12%
CC1(C)C(=O)Nc2ccccc2N1C(=O)COC(=O)/C=C/c1ccc(OC(F)F)cc1,-4%,-1%
Cc1sc2ncn(CC(=O)N3CCCCC3)c(=O)c2c1C,9%,5%
COc1ccc(N(CC(=O)NC2CCCC2)C(=O)c2ccc(C)s2)cc1OC,-5%,4%
Cc1ccc(-c2nc3ccc(NS(=O)(=O)c4ccccc4)cc3[nH]2)o1,-10%,1%
O=C1OC(Nc2ccc3ncccc3c2)c2ccccc21 (centres undefined),11%,-7%
COc1cccc(CN2CCc3nc(N4CCN(c5ncccn5)CC4)ncc3C2)c1,·,6%
Cc1ccc(C)c(N2CCN(C(=O)CN(C)S(=O)(=O)c3cnc[nH]3)CC2)c1,-18%,0%
COc1ccc(OCc2nnc(SCC(=O)N3C(C)CCCC3C)o2)cc1 (centres undefined),-1%,0%
Nc1c(C(=O)OCC2CCCO2)c2nc3ccccc3nc2n1C1CCCCC1 (centres undefined),6%,3%
Cc1ccc(S(=O)(=O)NNC(=O)C2CCN(Cc3ccccc3)CC2)cc1,0%,-3%
COc1ccc(N=N/C(=C\O)C(=O)c2ccco2)cc1,10%,1%
Cc1ccc(S(=O)(=O)N2CCN(C)CC2)cc1-c1nnc2c3ccccc3c(C)nn12,-4%,8%
Cc1cc(C)cc(NC(=O)Cc2c(C(=O)O)c(C)cn2C)c1,·,19%
CSc1nc2[nH]ncc2c(=O)[nH]1,1%,4%
Cc1ccc(-n2c(C)nc3c(cnn3-c3ccc(F)cc3)c2=O)cc1C,1%,3%
COc1ccc(NC(=S)Nc2ccc3nccnc3c2)cc1,-2%,1%
CC(C)(OC(=O)c1ccc(C#N)cc1)c1cc2ccccc2c(=O)o1,·,8%
O=c1c2ccccc2n(Cc2cccc(Cl)c2)c(=O)n1Cc1ccccc1,·,0%
Cc1cc(=O)oc2cc(OCC#N)ccc12,?,-12%
COC(=O)Cc1ccc(NC(=O)c2ccc(NC(=O)c3ccco3)cc2)cc1,4%,3%
Nc1ncnc2nc(SCC(=O)Nc3ccccc3F)[nH]c12,1%,11%
O=C(Nc1ccc(N2CCCC2)cc1)c1cccc(F)c1,-10%,-4%
COc1ccc(C)cc1N,10%,·
CS(=O)(=O)N(CC(=O)NCCSC1CCCCC1)c1ccc2c(c1)OCO2,2%,-1%
O=C(Nc1cccc(NC(=O)c2sc3ccccc3c2Cl)c1)c1ccco1,12%,-10%
NC(=O)c1ccccc1OCCOCCOCCOc1ccccc1C(N)=O,4%,-2%
Cc1ccc2c(=O)cc(C(=O)Nc3ccc(S(=O)(=O)N4CCCCC4)cc3)oc2c1C,·,-7%
COc1ccc2c(c1)OCC(Cc1ccc(O)c(OC)c1)C2=O (centres undefined),12%,·
COc1ccccc1CNC(=O)Cn1c(=O)nc(-c2ccccc2)c2ccccc21,·,0%
COc1ccc([N+](=O)[O-])cc1NC(=O)CSc1ncccn1,3%,0%
Cc1ccccc1OCC(=O)Nc1cccc(Cl)c1C,4%,1%
COc1cccc(C(Nc2ccccn2)c2c(NC(=O)c3ccco3)sc(C)c2C)c1 (centres undefined),-2%,-8%
Cc1cccc(NC(=S)Nc2ccc3cn[nH]c3c2)c1,-13%,1%
Cc1c(NC(=O)CSc2ncccn2)c(=O)n(-c2ccccc2)n1C,23%,2%
COc1ccc(CCNC(=O)COc2ncnc3ccccc23)cc1,0%,-18%
Cc1ccc(C)c(OCCn2c(C3CC(=O)N(Cc4ccc(F)cc4)C3)nc3ccccc32)c1 (centres undefined),·,-1%
COc1cccc(C2=NN(S(C)(=O)=O)C(c3cn(-c4ccccc4)nc3-c3cccs3)C2)c1 (centres undefined),·,3%
COc1ccc(NC(=O)Nc2ccc([N+](=O)[O-])cc2)cn1,-3%,-18%
COC(=O)c1cccc(N2C(=O)C(Cl)=C(N3CCOCC3)C2=O)c1,-9%,-8%
COc1ccc2oc(C(=O)OCC(=O)N(Cc3ccccc3)C(C)(C)C)c(C)c2c1,0%,-11%
O=C(NCC1CCCO1)C1CC(=O)N(C2CCCCCC2)C1 (centres undefined),7%,9%
Cc1ccc(C2=NOC(C)(c3nnc(-c4ccc(Cl)cc4)o3)C2)cc1 (centres undefined),11%,8%
O=C(CC1C(=O)NCCN1Cc1ccccn1)NCCc1ccccc1F (centres undefined),-12%,10%
CC12CCC(C(=Nc3ccc(N=C4C(=O)C5(C)CCC4C5(C)C)cc3)C1=O)C2(C)C,-3%,-8%
O=c1c(Cc2ccc(Cl)cc2Cl)c(O)ccn1Cc1ccncc1,1%,19%

Carrying on.
mol,N370S GC,FEN1 inh
NC(=O)C1CCN(C(=O)CCSc2ccc(Cl)cc2)CC1,-1%,12%
CCc1sc(C(=O)N2CCN(CC(=O)Nc3cccc(F)c3)CC2)cc1C,·,-4%
COc1cc(C(C)=O)ccc1OC(C)C(=O)Nc1ccc(S(=O)(=O)N2CCCC2)cc1 (centres undefined),·,-9%
O=C(NC1CC(=O)N(c2ccc(Cl)cc2)C1)C(=O)c1c[nH]c2ccccc12 (centres undefined),·,-6%
COc1ccc2[nH]c3c(c2c1)CCN1C(=O)C(CC(=O)NCCCn2ccnc2)C[C@H](C(=O)N2CCCCC2)[C@@]31C (some centres undefined),·,15%
Cc1cc2[nH]c(=O)c(=O)[nH]c2cc1S(=O)(=O)Nc1cccc(C)c1C,?,19%
O=C(Nc1nc(-c2ccccc2)c(C(=O)c2ccccc2)s1)c1ccc(S(=O)(=O)N2CCCC2)cc1,-10%,5%
COc1cc(OC)c(C(=O)NCc2ccco2)cc1OC,2%,-6%
O=c1ccc(-c2ccc(S(=O)(=O)N3CCN(c4cccc(Cl)c4)CC3)o2)n[nH]1,-1%,3%
CCOC(=O)CNC(=O)C(CO)NC(=O)OCc1ccccc1 (centres undefined),-8%,0%
COc1cc(NC(=O)COc2ccc3c(C)cc(=O)oc3c2C)cc(OC)c1OC,6%,-5%
COC12NC(=O)N(C)C1(OC)C(=O)N(C)C(=O)N2C (centres undefined),2%,-4%
O=S(=O)(c1ccc(Cl)cc1)N1CCC(O)(CN2CCN(Cc3ccccc3)CC2)CC1,0%,0%
CC(C)CC(=O)Nc1ccc2oc(-c3cccnc3)nc2c1,9%,-4%
CCOC(=O)c1ccccc1NC(=O)CSc1nc2cn(CC)nc2c(=O)n1Cc1ccc(Cl)cc1,·,-12%

4 structures from above, arranged by heavy-atom count, rising:
mol,N370S GC,FEN1 inh
CCOC(=O)CNC(=O)C(CO)NC(=O)OCc1ccccc1 (centres undefined),-8%,0%
O=C(NC1CC(=O)N(c2ccc(Cl)cc2)C1)C(=O)c1c[nH]c2ccccc12 (centres undefined),·,-6%
O=c1ccc(-c2ccc(S(=O)(=O)N3CCN(c4cccc(Cl)c4)CC3)o2)n[nH]1,-1%,3%
CCOC(=O)c1ccccc1NC(=O)CSc1nc2cn(CC)nc2c(=O)n1Cc1ccc(Cl)cc1,·,-12%

Given field by field: part of the list above.
> Cc1cc2[nH]c(=O)c(=O)[nH]c2cc1S(=O)(=O)Nc1cccc(C)c1C
  N370S GC: ?
  FEN1 inh: 19%

> O=C(Nc1nc(-c2ccccc2)c(C(=O)c2ccccc2)s1)c1ccc(S(=O)(=O)N2CCCC2)cc1
  N370S GC: -10%
  FEN1 inh: 5%

> O=S(=O)(c1ccc(Cl)cc1)N1CCC(O)(CN2CCN(Cc3ccccc3)CC2)CC1
  N370S GC: 0%
  FEN1 inh: 0%

Source: PubChem
